From PubChem
UCH37 DUB inh – inhibitors of human deubiquitinating enzyme UCH37 | Q9Y5K5 | purified proteasome/UCH37, Ub-AMC cleavage fluorescence | inhibition, % (test concentration not listed) | 330,000 tested, 0.33% active;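 active = mean of two replicates above 20%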;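 also: 0% = compound-free wells with enzyme and 100% = wells lacking proteasome; stock transfer was 100 nL into about 20 µL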
Target sequence (Q9Y5K5 whole entry, looked up): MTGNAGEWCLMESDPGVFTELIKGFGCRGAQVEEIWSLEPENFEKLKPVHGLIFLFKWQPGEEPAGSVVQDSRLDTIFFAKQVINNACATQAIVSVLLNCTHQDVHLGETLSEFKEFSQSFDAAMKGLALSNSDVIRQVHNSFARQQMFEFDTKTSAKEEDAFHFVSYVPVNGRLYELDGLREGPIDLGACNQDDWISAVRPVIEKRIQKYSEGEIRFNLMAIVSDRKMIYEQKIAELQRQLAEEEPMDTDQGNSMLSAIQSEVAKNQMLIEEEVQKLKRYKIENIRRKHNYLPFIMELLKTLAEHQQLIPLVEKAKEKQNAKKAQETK
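Material: Human UCH37 enzyme supplied as purified proteasome complex | Schedule: 30 min compound-proteasome preincubation then 25 min substrate reaction, room temperature | Detection: AMC fluorescence from Ub-AMC cleavage, excitation 355 nm, emission 460 nm | Benchmarks: Wells without proteasome as full block, compound-free enzyme plus substrate as uninhibited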
FGF22 binding – shifts melting point of recombinant human FGF22; Q9HCT0; recombinant FGF22 thermal shift, SYPRO orange fluorescence; percent of sucrose octasulfate shift, DMSO zero; calls only at 9.99 µM; 340,000 tested, 1.5% active;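 active = melting point raised past a set limit in the mean and every replicate; inconclusive = no clear call; three in four hits are not shown here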
Target sequence (Q9HCT0 whole entry, looked up): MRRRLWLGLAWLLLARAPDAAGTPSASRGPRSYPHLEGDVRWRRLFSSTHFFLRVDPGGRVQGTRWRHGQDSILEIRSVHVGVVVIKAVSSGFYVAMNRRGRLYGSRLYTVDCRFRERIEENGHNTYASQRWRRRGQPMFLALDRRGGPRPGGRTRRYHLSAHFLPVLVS
AF4-AF9 inh – blocks AF4 peptide binding to human AF9. AID 651704. inhibition, % at 10 µM. P42568. AlphaScreen, biotin-AF4 peptide binding to FLAG-AF9. 350,000 tested, 0.47% active;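 active = every replicate reaching a set inhibition limit, whatever the replicate mean, cut at about 25% in these data; inconclusive = mean inhibition reaches that limit but some replicates miss it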;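 also: 0% = plate neutral control median and 100% = total signal loss; the record names both 10 and 1 µM as test concentration; the first replicate is given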
Target sequence (P42568 whole entry, looked up): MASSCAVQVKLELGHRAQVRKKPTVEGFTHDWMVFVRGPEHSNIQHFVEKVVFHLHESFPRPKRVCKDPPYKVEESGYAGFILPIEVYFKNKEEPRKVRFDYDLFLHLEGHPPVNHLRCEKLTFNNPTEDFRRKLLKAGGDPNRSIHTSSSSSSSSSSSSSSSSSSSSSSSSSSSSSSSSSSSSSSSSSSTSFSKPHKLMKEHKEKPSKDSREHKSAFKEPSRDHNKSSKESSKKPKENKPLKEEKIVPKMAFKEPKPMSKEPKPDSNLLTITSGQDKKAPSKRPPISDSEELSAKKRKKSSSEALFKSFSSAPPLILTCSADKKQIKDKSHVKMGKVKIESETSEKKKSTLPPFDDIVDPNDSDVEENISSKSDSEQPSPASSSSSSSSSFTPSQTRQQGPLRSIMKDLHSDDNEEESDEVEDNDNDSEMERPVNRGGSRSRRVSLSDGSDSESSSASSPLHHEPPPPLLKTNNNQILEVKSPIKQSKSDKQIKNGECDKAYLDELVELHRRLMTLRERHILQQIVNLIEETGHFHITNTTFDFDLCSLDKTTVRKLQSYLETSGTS
Ecoli growth – E. coli growth inhibition; Escherichia coli growth, OD600, 23 h; hits give low values; OD600 absorbance (no concentration beside the values); 330,000 tested, 0.21% active; AID 1053175;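 active = OD600 absorbance below the run mean of sample wells minus 3.6 SD, in any replicate, cut at about 0.56 in these data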;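 also: stock transfer was 300 nL into about 60 µL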
A1 inh – inhibitors of the anti-apoptotic protein A1, read as caspase activation; MEF A1-2A-BIM cells, Caspase-Glo 3/7 luminescence, 3 h; percent of clofoctol response, vehicle zero; 330,000 tested, 0.066% active; caspase activation, % (concentration not given with the values);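 active = over half of replicate activation scores above 10%, or exactly half above 10 with the replicate mean above 10; inconclusive = replicate mean below 10 yet half the replicates above 10; inactive = over half of replicates below 10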;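 also: wells of about 30 µL received 50 nL stock; many hits fall short of the cut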
Beta cell apopt – blocks beta cell apoptosis | INS-1E cytokine-induced death, ATP luminescence, 48 h; percent of positive-control rescue, neutral wells zero | protection from apoptosis, % (no concentration beside the values) | 300,000 tested, 0.8% active | AID 435005;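 active = all replicates at 75% or more, or half of them and the mean; inconclusive = half reach 75% but not the mean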;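 also: 0% = cytokine-treated negative control wells and 100% = positive control rescue; higher means more ATP so stronger rescue from cytokine killing; wells of about 40 µL received 100 nL stock; the first replicate is given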
Ecoli rRNA inh – inhibitors of bacterial rRNA selective over humanized ribosomes; GFP signal change (wild-type ribosome), % (concentration not given with the values); 350,000 tested, 1.6% active; AID 720706; E. coli WT GFP vs humanized-ribosome RFP mutants, fluorescence, 24 h; hits give low values; DMSO median 0, no signal -100;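 active = significant combined selectivity score with lowered wild-type GFP, culture density cut under 30%, mutant RFP and density less affected; inactive = any of these conditions unmet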; also: one replicate is shown; some compounds called inactive have numbers as strong as hits
T cruzi inh – blocks replication of Trypanosoma cruzi | inhibition, % (no concentration beside the values) | T. cruzi beta-gal in NIH3T3, luminescence, 90 h | AID 1885 | 300,000 tested, 1.4% active;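 active = mean inhibition across valid replicates above about 55%, limit read from the data; inconclusive = mean below that limit but half or more replicates reach it; inactive = mean below it, under half of replicates reach it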;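 also: signal also drops with host cell toxicity which is not excluded here; 0% = plate median of DMSO wells and 100% = zero luminescence signal; higher percent means less beta-gal luminescence so fewer parasites; stock transfer was 50 nL into about 50 µL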
Ecoli rRNA inh OD600 – further read-out of Ecoli rRNA inh, marked with its call; OD600 change, %; measured here: OD600 growth;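 optical density of the mix in the first replicate; 0 = DMSO median and -100 = no signal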
Ecoli rRNA inh RFP – second read-out of Ecoli rRNA inh, no call of its own (marks repeat the call); RFP signal change, %; measured here: RFP humanized mutant strains;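 first replicate; 0 = DMSO median and -100 = no signal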
Numbers without * were called inactive; i = inactive; ? = inconclusive; . = no result given. Some of the compounds tested. The share of hits here may be higher or lower than overall.

SMILES | UCH37 DUB inh | FGF22 binding | AF4-AF9 inh | Ecoli growth | A1 inh | Beta cell apopt | Ecoli rRNA inh | Ecoli rRNA inh OD600 | Ecoli rRNA inh RFP | T cruzi inh
O=C(CC(Sc1n[nH]c(-c2ccccc2)n1)c1ccccc1)NCc1ccccc1 (centres undefined) | 2.0 | . | . | 0.69 | 0.0 | 3 | . | . | . | -8
CCOC(CNc1ncnc2c1cnn2C)OCC | -1.6 | i | -3.0 | 0.72 | -0.1 | 0 | -1 | 4 | -1.7 | -17
O=c1[nH]c(CN2CCN(C/C=C/c3ccccc3)CC2)nc2ccccc12 | -1.4 | i | -6.6 | 0.65 | -1.2 | -7 | 13 | 9 | -5.3 | 72*
O=C(O)CCNc1ccc(NCCC(=O)O)c2c1C(=O)c1ccccc1C2=O | . | i | 32* | . | -0.2 | 26 | -5 | 21 | 16 | -9
Cc1ccccc1OCCC(=O)NNC(=O)c1ccccc1F | 0.8 | i | -4.2 | 0.68 | 0.1 | -1 | . | . | . | .
CCc1ccc(N(CC(=O)NC(C)(C)CC)C(=O)CCC(=O)Nc2nccs2)cc1 | 5.6 | i | 0.2 | 0.66 | 0.7 | 1 | 1 | 5 | -3.9 | 8
Cc1ccc(CCNC(=O)CCn2c(=O)c3cccn3c3ccc(F)cc32)cc1 | -4.3 | i | -4.1 | 0.65 | -0.4 | -5 | -10 | -2 | 2.5 | 12
Cc1ccc2nc(Nc3ccc4[nH]c(=O)[nH]c4c3)c(-n3nc(C)cc3C)nc2c1 | 4.6 | . | . | 0.71 | 0.0 | -7 | . | . | . | 30
CC(=O)/C=C1\N(C)c2ccc(C)cc2C1(C)C | -23 | i | -4.2 | 0.69 | -0.4 | 99* | 1 | 4 | 55 | 66*
N=c1c(C(=O)NC2CCCC2)cc2c(=O)n3ccccc3nc2n1CCCN1CCOCC1 | i | i | 1.6 | 0.65 | 0.2 | 5 | 7 | 15 | -1.4 | 7
CCN(CC)S(=O)(=O)c1ccc2oc(Nc3ccc(OC)cc3)nc2c1 | 1.9 | i | 1.6 | 0.66 | -1.1 | 2 | -3 | -3 | 1.1 | 24
COc1ccc(OC)c(N(CC(=O)Nc2ccc(NC(C)=O)cc2)S(C)(=O)=O)c1 | 5.8 | . | -4.1 | 0.71 | -0.1 | -3 | 0 | 8 | 18 | -17
CC1CCCCC1NC(=O)/C(C#N)=C/C=C/c1ccccc1[N+](=O)[O-] (centres undefined) | -2.3 | i | 2.4 | 0.7 | 0.3 | -65 | 1 | 5 | 6.7 | 1
COCCN(Cc1ccccc1)C(=O)c1cc(-c2ccc(OC)c(OC)c2)nc2ccccc12 | -116 | i | -0.3 | 0.63 | -0.8 | 13 | -31* | -24* | -0.7* | 4
CC(=O)N1CCC(N(CCN2CCOCC2)C(=S)Nc2cc(C)ccc2C)CC1 | 3.5 | i | -4.8 | 0.71 | -0.1 | . | 16 | 5 | -3.0 | -1
Cc1ccc(S(=O)(=O)N(C)C)cc1NC(=O)c1cc(=O)c2ccccc2o1 | 4.0 | i | 1.9 | 0.64 | -0.6 | -2 | -6 | -2 | -2.3 | -12
NC(=O)N/N=C/c1c(F)cccc1F | . | i | -5.0 | . | 0.1 | -3 | 25 | 6 | 2.4 | -12
COc1cccc2c(=O)cc(C)n(CC(=O)Nc3cccc(C)c3)c12 | -22 | i | -1.5 | 0.65 | -0.5 | 6 | -18 | -13 | 6.0 | -6
CCc1cc(C(=O)N2CCN(S(=O)(=O)c3ccccc3F)CC2)sc1C | 2.6 | i | -0.9 | 0.63 | 1.3 | 4 | 15 | -4 | -0.9 | .
COc1ccc(-c2nn(-c3ccccc3)cc2C(=O)NC(=S)N2CCOCC2)cc1OC | 4.0 | i | 0.2 | 0.69 | -0.3 | 7 | 0 | 23 | -1.5 | .
O=c1cnnc(NCc2ccccc2)[nH]1 | 0.4 | . | . | 0.74 | 0.5 | -3 | . | . | . | -17
C/C(=N\NC(=O)c1cccnc1)c1ccc(Br)cc1 | . | i | -0.8 | . | 0.4 | -6 | 3 | 11 | 2.9 | -11
Fc1ccccc1-c1n[nH]c(=S)n1/N=C/c1c[nH]c2ccccc12 | . | i | -1.6 | . | -0.3 | -1 | . | . | . | -15
CNC(=O)C(=O)Nc1cc2c3c(c1)CCN3C(=O)CC2 | 4.0 | i | -2.5 | 0.7 | 1.2 | -7 | 2 | 7 | -2.3 | -5
CCC(NC(=O)c1oc2ccccc2c1COC)c1ccc(OC)cc1 (centres undefined) | . | i | -5.3 | . | ? | 2 | -2 | -20 | -1.5 | -3
O=C(NCc1ccccc1)C1CCN(S(=O)(=O)N2CCCCCC2)CC1 | 1.7 | . | . | 0.68 | 0.1 | 0 | . | . | . | 0
Cc1ccc(NC(=O)Cn2c(=O)n(Cc3ccco3)c(=O)c3ccccc32)c(C)c1 | 2.7 | . | . | 0.71 | -0.3 | . | . | . | . | 5
CC1CN(c2nc3ccccc3nc2SCC(=O)Nc2ccc(F)cc2)CC(C)O1 (centres undefined) | -1.6 | i | 3.6 | 0.77 | 0.2 | 4 | -4 | -2 | 0.4 | 35
OCC1(CCCc2ccccc2)CCN(Cc2cnc(N3CCOCC3)s2)CC1 | 4.0 | i | 1.4 | 0.7 | -0.2 | -3 | -3 | -12 | 1.8 | 59*
O=S(=O)(c1cccc(-c2cn3ccccc3n2)c1)N1CCCC1 | -6.8 | i | -8.0 | 0.68 | 0.3 | -2 | -1 | 10 | -2.6 | 10
CC(=O)C1=C(O)C(=O)N(CCC(=O)O)C1c1ccccc1Cl (centres undefined) | 4.5 | . | . | 0.69 | -0.1 | -4 | . | . | . | -1
COc1ccc(F)cc1S(=O)(=O)n1cnc2ccccc21 | 4.0 | i | -6.3 | 0.69 | 0.6 | 1 | 23 | 11 | -0.7 | 2
O=C(NNC(=O)c1cccs1)c1ccc(Cl)cc1 | 3.5 | i | -0.8 | 0.73 | -0.3 | -2 | 8 | 7 | 4.9 | -12
Cn1ccnc1SC(C(=O)O)c1ccccc1 (centres undefined) | 2.5 | i | -3.3 | 0.66 | -0.8 | -1 | 8 | 14 | 1.5 | -3
Cn1c(N2CCCC2)nc2c1c(=O)[nH]c(=O)n2C | -1.2 | i | 1.6 | 0.68 | -0.8 | . | 15 | 6 | -0.3 | -24
N#Cc1ccccc1CN1C(=O)S/C(=C/c2cccn2-c2cccc(C(=O)O)c2)C1=O | 6.5 | . | . | 0.71 | -0.6 | 4 | . | . | . | .
c1ccc(Oc2c3ccccc3nc3ccccc23)cc1 | -66 | . | . | 0.66 | 0.6 | 5 | . | . | . | -13
S=C1NC[C@H](CC2CCCCC2)N1CCCCC1CCCCC1 | -0.1 | i | 2.7 | . | 1.9 | 3 | 11 | -2 | -2.9 | 1
Cc1cc(C)n(CC(=O)O)c(=O)c1[N+](=O)[O-] | . | i | -2.1 | . | -0.7 | -2 | 9 | 6 | -3.0 | .
CC(C)(C)Nc1nc(N)nc(Cl)n1 | 4.7 | i | -0.7 | 0.73 | -0.2 | 1 | 18 | 10 | 5.0 | -7
Cc1nnc(NC(=O)c2ccc(-c3ccc([N+](=O)[O-])cc3)o2)s1 | 6.6 | i | -2.0 | 0.69 | -0.2 | -1 | -1 | -2 | -2.8 | -16
COc1ccc(-c2c(C)[nH]n3c(=O)c(Cc4ccccc4)c(C)nc23)cc1OC | 0.2 | i | 9.3 | 0.67 | -0.2 | 11 | -48 | -79 | -13 | -1
CC1(C)Cc2c(C#N)c(SCC(=O)c3ccccc3)nc(N3CCOCC3)c2CS1 | 3.3 | . | . | 0.68 | -1.7 | 9 | . | . | . | 20
Cc1[nH]c2ccccc2c1C(=O)CN1CCN(c2ccc(Cl)cc2)CC1 | 2.0 | i | -1.4 | 0.7 | -0.1 | -3 | -7 | -6 | 2.2 | 36
O=C(Cc1ccc(S(=O)(=O)N2CCOCC2)s1)Nc1nc2c(s1)CCCC2 | -1.6 | . | . | 0.81 | -0.3 | -5 | . | . | . | 0
CCOc1ccc(OCCn2c(=S)[nH]c3c(N)ncnc32)cc1 | -1.3 | i | -11 | 0.59 | 0.2 | -10 | -31* | 6.5* | -4.4* | 1
O=C(NCCCCc1ccccc1)NC[C@@H]1CC[C@@H](Cc2ccc(-c3ccccc3)cc2)O1 | 0.5 | i | 0.7 | 0.71 | . | . | -3 | -15 | -3.1 | .
COc1ccc(NC(=O)CC2C(=O)N(c3ccc(Cl)cc3)C(=S)N2NC(=O)c2cccc(F)c2)cc1 (centres undefined) | 0.8 | i | 9.3 | 0.71 | 0.2 | 2 | -10 | 3 | -8.1 | -32
FC(F)(F)c1ccc(NC(=S)NC2CCCCC2)cc1 | 2.9 | i | -0.6 | 0.64 | 0.1 | 12 | -54* | -36* | -13* | 33
Nn1c(SCc2ccc(F)cc2)nnc1-c1ccccn1 | 5.0 | i | -0.1 | 0.68 | -0.4 | 1 | 0 | 11 | 0.1 | -10

New compounds follow
SMILES | UCH37 DUB inh | FGF22 binding | AF4-AF9 inh | Ecoli growth | A1 inh | Beta cell apopt | Ecoli rRNA inh | Ecoli rRNA inh OD600 | Ecoli rRNA inh RFP | T cruzi inh
CCNC(=O)c1c(C)[nH]c(C(=O)OCC)c1C | 4.6 | . | . | 0.73 | 2.0 | -6 | . | . | . | -11
Cc1onc(-c2ccccc2)c1C(=O)N1CCOCC1 | 6.0 | . | . | 0.71 | 0.5 | -8 | . | . | . | 4
O=C(CCN1C(=O)c2ccccc2S1(=O)=O)Nc1cccc2ccccc12 | 6.5 | i | -0.4 | 0.71 | -0.1 | 1 | 19 | 21 | 1.7 | -7
Cc1cc(NC(=O)CSc2nnnn2-c2ccc(C(C)C)cc2)no1 | . | i | -12 | . | -0.1 | -3 | -4 | -5 | 0.2 | 8
O=C(CCN1CCOCC1)Nc1ccc(Cl)cc1 | 1.0 | i | 1.8 | 0.68 | 0.4 | -7 | 12 | 21 | 2.4 | -8
COc1ccc(OC)c(NC(=O)c2cc(S(=O)(=O)N3CCCC3)cn2C)c1 | 0.2 | i | 1.0 | 0.71 | 0.5 | 0 | -1 | 2 | 4.1 | 7
COc1ccc(N(C(=O)c2cccc(OC)c2OC)C2C=CS(=O)(=O)C2)c(OC)c1 (centres undefined) | 0.3 | i | -62 | 0.68 | 0.1 | 1 | 8 | -3 | -6.3 | -24
COc1ccc(CNC(=O)c2cc(=O)c3ccccc3o2)cc1 | 1.9 | i | 0.0 | 0.63 | -0.2 | 1 | 0 | 3 | -1.0 | -12
CCOC(=O)CNC(=O)CSc1nnc(-c2ccccc2)c(-c2ccccc2)n1 | 1.8 | i | -0.1 | 0.65 | 0.2 | -1 | -1 | -6 | 3.4 | 1
